Screens (PubChem BioAssay)
Mtb H37Rv – M. tuberculosis H37Rv growth inhibitors, H37Rv strain (AID 1626); M. tuberculosis H37Rv growth inhibition; higher % means a stronger effect; inhibition, % at 10 µM; hits with a dose series show IC50 in µM; 0.95% of 220,000 active;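 active = confirmed in a dose series; inconclusive = inhibition above 80% but not taken into the dose series; inactive = below 80% or under 30% at every dose of the series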;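 also: bacteria incubated seven days before Alamar blue readout; 0% = bacteria only wells and 100% = bacteria with antibiotic wells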
Arbovirus anti – antivirals against arbovirus infection, primary screen, cell-based, full library, 10K replicate subset; arbovirus infection cell-based antiviral screen; 0.37% of 200,000 active; AID 1251, 2008; inhibition, % at 10 µM;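 active = inhibition from about 30%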;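 also: bluetongue infection of BSR cells; cell survival read as ATP light after 72 h; 0% = infected wells without compound and 100% = uninfected wells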
Mtb bLac sens – beta-lactam sensitization of Mtb H37Rv, H37Rv; M. tuberculosis H37Rv growth with meropenem, percent inhibition; hits of this screen are not shown here; inhibition, % at 25 µM; 0.27% of 330,000 active;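 active = about 74% or more and at least 40 points above the plate without the antibiotic, then above 30% in a dose series; inconclusive = first-round hits that could not be retested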;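 also: growth measured after seven days incubation then overnight dye step; 0% = bacteria only wells and 100% = bacteria with antibiotic; twin plates without the antibiotic show which effects depend on it; some results filed as inactive read as strong as hits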
YopH inh – YopH tyrosine phosphatase inhibitors, primary screen, biochemical, fluorescence Ex485/Em525; YopH tyrosine phosphatase [Yersinia enterocolitica]; inhibition, %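 (about 10 µM by stock and volumes)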; 0.16% of 140,000 active;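 active = inhibition of 50% or more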;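 also: controls were vehicle for no effect and minimum signal wells for full effect; inactives centre near -20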
RecA splice inh – Mtb RecA intein splicing inhibitors, primary screen, biochemical, fluorescence, HTS. cell-free RecA intein splicing. inhibition, %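 (about 9 µM by stock and volumes)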. 0.75% of 290,000 active. Protein RecA (Mycobacterium tuberculosis (strain ATCC 25618 / H37Rv)), P9WHJ3. AID 2221, 2009; in the data active = inhibition above about 30%; inconclusive = no clear call, values can overlap the other calls;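 also: 0% = vehicle wells and 100% = reference inhibitor control wells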
Target sequence (P9WHJ3 whole entry, looked up, canonical isoform): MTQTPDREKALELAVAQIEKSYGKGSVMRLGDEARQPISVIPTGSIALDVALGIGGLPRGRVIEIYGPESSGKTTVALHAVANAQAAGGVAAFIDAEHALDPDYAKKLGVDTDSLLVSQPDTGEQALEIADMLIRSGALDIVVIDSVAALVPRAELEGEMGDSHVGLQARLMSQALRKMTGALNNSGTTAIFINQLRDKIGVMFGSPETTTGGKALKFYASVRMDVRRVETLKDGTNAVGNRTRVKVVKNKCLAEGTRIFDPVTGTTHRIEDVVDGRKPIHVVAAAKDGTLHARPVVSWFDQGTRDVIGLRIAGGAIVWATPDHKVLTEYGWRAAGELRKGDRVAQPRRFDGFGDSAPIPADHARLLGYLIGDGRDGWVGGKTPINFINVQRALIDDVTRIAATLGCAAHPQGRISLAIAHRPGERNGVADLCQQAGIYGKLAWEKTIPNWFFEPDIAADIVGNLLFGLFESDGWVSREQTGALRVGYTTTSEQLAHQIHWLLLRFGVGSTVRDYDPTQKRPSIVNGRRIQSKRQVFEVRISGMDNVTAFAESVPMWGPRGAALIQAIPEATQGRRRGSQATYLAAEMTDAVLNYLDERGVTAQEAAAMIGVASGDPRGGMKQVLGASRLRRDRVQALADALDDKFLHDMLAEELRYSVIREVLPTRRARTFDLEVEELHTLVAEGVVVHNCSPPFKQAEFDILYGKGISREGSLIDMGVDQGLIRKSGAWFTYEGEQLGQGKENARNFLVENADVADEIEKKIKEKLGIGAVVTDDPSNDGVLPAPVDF
Arbovirus anti repeat – also measured in Arbovirus anti; calls as there; inhibition, %; measured here: 10K subset replicate screen; many hits read low in the repeat;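 first of two repeat runs on a subset; 0% = infected and 100% = uninfected wells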
* hit, by the source's call; ? = inconclusive; · = no result given. Not all compounds are listed (hit frequency here may not be typical).

SMILES | Mtb H37Rv | Arbovirus anti | Mtb bLac sens | YopH inh | RecA splice inh | others
Cn1cnnc1Sc1ccc(C(=O)OCC(=O)Nc2cc(Cl)cc(Cl)c2)cc1[N+](=O)[O-] | -4% | -3 | 3 | -6 | 17
Cc1sc(NC(=O)c2ccco2)c(C(Nc2ccccn2)c2ccccc2)c1C (centres undefined) | 7% | 11 | -3 | -6 | -0.9
CC(C)(C)c1ccc(-n2ncc3c2CCCC3NC(=O)CCN2CCCO2)cc1 (centres undefined) | · | · | -7 | · | 2.4
CCc1ccc(S(=O)(=O)NCc2ccc(N3CCN(C)CC3)cc2)cc1 | -1% | · | -6 | · | ·
CC(c1ccccc1C(O)c1ccccc1)N(C)C (centres undefined) | -4% | 7 | 3 | -18 | 3.5
COc1cc(-c2nnc(SCC(=O)c3ccccc3)o2)cc(OC)c1OC | 0% | 8 | 1 | -28 | 0.7
Cc1onc(-c2ccccc2Cl)c1C(=O)N1CCc2ccccc21 | -1% | 2 | 6 | 0 | 2.8 | Arbovirus anti repeat=1
Cn1nnnc1SCCNCC#Cc1ccccc1 | 9% | 5 | 2 | -4 | 0.3
COc1ccccc1CNC(=O)c1ccc(OC(F)F)c(OC)c1 | 8% | -2 | -1 | -39 | 0.4
O=C(O)c1ccc(-n2nc(-c3ccccc3)c3ccccc3c2=O)cc1 | · | · | 50 | · | -0.4
CC(OC(=O)c1ccc(Cl)c(S(=O)(=O)N2CCOCC2)c1)C(=O)Nc1ccc(S(N)(=O)=O)cc1 (centres undefined) | · | · | -5 | · | -5.8
COc1ccc(N2C(=O)NC3CC2(C)Oc2ccc(Cl)cc23)cc1OC (centres undefined) | · | -11 | 4 | -41 | -0.2
Nc1ccc(Oc2cc(N)cc(Oc3ccccc3)c2)cc1 | · | · | -6 | · | 3.7
CCOc1ccc(NC(=O)CCC(=O)OC)cc1 | 6% | -1 | 74 | -70 | -4.1
Cc1cc(NS(=O)(=O)c2ccc(NC(=O)CCc3ccccc3)cc2)no1 | -11% | 0 | 10 | -36 | -3.0
O=C(CNC(=O)c1ccc2c(c1)OCCO2)N/N=C/c1ccc([N+](=O)[O-])cc1 | · | · | 5 | · | -2.0
Cc1ccc(Oc2ncnc(N)c2[N+](=O)[O-])cc1 | 5% | 9 | 3 | · | 2.8
COc1cc2nc(=S)n(CCCN3CCOCC3)c(N)c2cc1OC | -4% | 7 | · | · | ·
CCc1ccc(OCC(=O)NNC(=O)Cc2ccc(S(=O)(=O)N3CCOCC3)s2)cc1 | · | · | -4 | · | -0.6
CCn1c(Cc2ccccc2)nnc1SCC(=O)Nc1cc(C)on1 | -3% | -4 | -11 | -5 | -0.7
O=C(Cc1c(Cl)cccc1Cl)Nc1ccc(S(=O)(=O)Nc2ncccn2)cc1 | · | · | 3 | · | -2.0
O=C(O)C1CCCCC1C(=O)Nc1ccc(S(=O)(=O)N2CCCCC2)cc1 (centres undefined) | · | · | 4 | · | 1.7
Cc1ccc([N+](=O)[O-])cc1Nc1nc(N2CCCC2)nc(N2CCCC2)n1 | · | · | 11 | · | -0.1
COc1cc(NC(=O)c2ccc3nsnc3c2)cc(OC)c1OC | · | · | -4 | · | -2.0
Cc1nn(-c2ccccc2)c(C)c1C(=O)OCC(=O)NC(=O)NC1CCCC1 | 2% | 0 | -5 | -14 | 6.2
COc1ccc(NC(=O)c2[nH]ncc2[N+](=O)[O-])cc1 | -4% | 1 | -1 | · | -1.3
O=C(NC(=S)Nc1ccc2cn[nH]c2c1)c1ccccc1 | -2% | 1 | -3 | · | 2.9
COc1ccccc1/C=C/C(=O)c1ccc(Cl)cc1 | 20% | -13 | 98 | -12 | -0.5
COc1ccc2nc(NC(=O)Cn3cnc4ccccc4c3=O)sc2c1 | 0% | · | -6 | · | 1.3
COc1ccccc1CNC(=O)COC(=O)c1ccc(S(=O)(=O)N2CCCC2)cc1 | -1% | 2 | -3 | -28 | 0.1
Cc1ccccc1C(=O)Nc1ccccc1-c1nnn(CC(=O)Nc2ccc3c(c2)OCCO3)n1 | 3% | 5 | 18 | -37 | 1.8
COc1ccc(N/C=C2/Sc3ccccc3NC2=O)cc1 | 75% | -3 | 10 | · | -2.7
CC(=O)c1ccc(N2CCN(C(=O)CCCc3nc4ccccc4s3)CC2)cc1 | 1% | 3 | 5 | -12 | ·
Cc1nc(-c2cccc(NS(=O)(=O)c3cccc4ccccc34)c2)cs1 | 1% | -13 | ? | -26 | 12
CCc1cc(=O)oc2cc(C)cc(OC(C)C(=O)NC3CCN(Cc4ccccc4)CC3)c12 (centres undefined) | · | · | -4 | · | 1.1
CCOc1ccccc1CNC(=O)CCCn1ncn2c(cc3occc32)c1=O | · | · | 0 | · | -4.0
CC1(C)C2CCC(C2)C1C/C=N/NC(N)=S (centres undefined) | 2% | · | 79 | · | -0.4
COc1ccc(-c2cc(C(=O)N3CCN(c4ccc(F)cc4)CC3)no2)cc1 | · | · | 2 | · | 1.6
COc1ccc(C2CC(c3cccc(C)c3)n3nc(N)nc3N2)cc1 (centres undefined) | -4% | -7 | -5 | -6 | 0.1 | Arbovirus anti repeat=-2
CN(C)CCN1C(=O)C(O)=C(C(=O)c2ccco2)C1c1ccccc1F (centres undefined) | -9% | -4 | -6 | -22 | -0.6

As a working copy, part of the list above:
SMILES | Mtb H37Rv | Arbovirus anti | Mtb bLac sens | YopH inh | RecA splice inh | others
COc1ccc2nc(NC(=O)Cn3cnc4ccccc4c3=O)sc2c1 | 0% | · | -6 | · | 1.3
COc1ccccc1CNC(=O)COC(=O)c1ccc(S(=O)(=O)N2CCCC2)cc1 | -1% | 2 | -3 | -28 | 0.1
Cc1ccccc1C(=O)Nc1ccccc1-c1nnn(CC(=O)Nc2ccc3c(c2)OCCO3)n1 | 3% | 5 | 18 | -37 | 1.8
COc1ccc(N/C=C2/Sc3ccccc3NC2=O)cc1 | 75% | -3 | 10 | · | -2.7
CC(=O)c1ccc(N2CCN(C(=O)CCCc3nc4ccccc4s3)CC2)cc1 | 1% | 3 | 5 | -12 | ·
Cc1nc(-c2cccc(NS(=O)(=O)c3cccc4ccccc34)c2)cs1 | 1% | -13 | ? | -26 | 12
CCc1cc(=O)oc2cc(C)cc(OC(C)C(=O)NC3CCN(Cc4ccccc4)CC3)c12 (centres undefined) | · | · | -4 | · | 1.1
CCOc1ccccc1CNC(=O)CCCn1ncn2c(cc3occc32)c1=O | · | · | 0 | · | -4.0
CC1(C)C2CCC(C2)C1C/C=N/NC(N)=S (centres undefined) | 2% | · | 79 | · | -0.4
COc1ccc(-c2cc(C(=O)N3CCN(c4ccc(F)cc4)CC3)no2)cc1 | · | · | 2 | · | 1.6
COc1ccc(C2CC(c3cccc(C)c3)n3nc(N)nc3N2)cc1 (centres undefined) | -4% | -7 | -5 | -6 | 0.1 | Arbovirus anti repeat=-2
CN(C)CCN1C(=O)C(O)=C(C(=O)c2ccco2)C1c1ccccc1F (centres undefined) | -9% | -4 | -6 | -22 | -0.6

More structures.
SMILES | Mtb H37Rv | Arbovirus anti | Mtb bLac sens | YopH inh | RecA splice inh | others
CC(C(=O)NCc1ccccc1)N1C(=O)C2CC=C(Cl)CC2C1=O (centres undefined) | 3% | -4 | 1 | 8 | -5.3
COc1ccc(N2CCN(C(=O)c3ccc(CNc4c(N5CCOCC5)c(=O)c4=O)cc3)CC2)cc1 | · | 4 | 100 | -36 | -2.8 | Arbovirus anti repeat=6
CCCN1CCC(NC(=O)Cc2ccccc2OC)CC1 | · | · | -3 | · | -3.3
S=C(Nc1cccc(Cl)c1)Nc1ccc2c(c1)OCCO2 | · | · | 4 | · | -1.1
CC1CN(c2oc(-c3ccco3)nc2S(=O)(=O)c2ccccc2)CC(C)O1 (centres undefined) | -2% | 4 | -5 | -39 | -0.3
O=C(CNc1cc(S(=O)(=O)N2CCOCC2)ccc1NCC1CCCO1)Nc1ccccc1F (centres undefined) | · | · | -6 | · | -3.7
COc1ccc(NC(=O)CS(=O)CC(=O)NCc2cccc(C(F)(F)F)c2)cc1 (centres undefined) | -4% | -6 | -4 | -37 | -0.3
CCCCCC(=O)NNC(=S)NC(=O)c1ccc([N+](=O)[O-])cc1 | ? | 9 | 97 | · | 2.9
Cc1ccc(C(=O)NCc2nnc(SCC(=O)NC(C)c3ccccc3)n2C)cc1 (centres undefined) | 1% | 2 | 1 | · | 2.3
CCCCCCSc1nc(O)c(C2OC(=O)c3c2ccc(OC)c3OC)c(=O)n1-c1ccccc1 (centres undefined) | -7% | 28 | 4 | -14 | 10
O=C(COc1ccc(Cl)cc1)N(Cc1ccccc1)c1ccccn1 | 7% | -3 | 1 | -36 | 2.6
CSc1ncc(Cl)c(C(=O)O)n1 | -4% | 3 | 1 | -51 | 0.4
COc1ccc(C(=O)NC(C(=O)NCc2ccccn2)C(C)C)cc1 (centres undefined) | -7% | 0 | -12 | -24 | -3.0
COc1ccc(CNC(=O)c2ccccc2C(=O)O)cc1 | -11% | 1 | -6 | -16 | 0.7
Cc1ccc(C(CC(=O)O)NC(=O)CN2C(=O)c3ccccc3C2=O)cc1 (centres undefined) | · | · | -1 | · | -8.0
CCN1C(=O)C(CC(=O)Nc2ccc(F)cc2)N(CCCN2CCN(c3ccc(F)cc3)CC2)C1=S (centres undefined) | 4% | -31 | 81 | · | 0.5
O=C(CCC(=O)Nc1cccc([N+](=O)[O-])c1)NCc1ccccc1 | · | · | 2 | · | 0.1
COc1cccc2cc(C(=O)Nc3ccccc3C)/c(=N/O)oc12 | · | · | 6 | · | -0.6
Cc1ccc2c(c1)N(CC(=O)NC1CCCCC1)C(=O)c1cccnc1O2 | · | · | -2 | · | -0.3
OCC1(Cc2ccc(Cl)cc2)CCN(Cc2ccccc2F)CC1 | 12% | -2 | 5 | · | 4.4
O=C(COc1ccc2ccccc2c1)NNC(=O)Nc1ccccc1F | · | · | 4 | · | 1.7
Cc1nnc(SCC(=O)Nc2c(C)n(C)n(-c3ccccc3)c2=O)n1Cc1ccccc1 | -4% | 5 | -4 | · | -1.0
Cc1cnc(C(=O)OCC(=O)N(Cc2ccccc2)C(C)C)cn1 | 1% | -4 | 4 | · | 0.1
Cn1c(=NC(=O)COc2ccccc2)sc2cc(F)cc(F)c21 | -13% | · | -6 | · | 0.8
Cc1ccc(N2CC(C(=O)Nc3ccccn3)CC2=O)cc1 (centres undefined) | 4% | -3 | 6 | 6 | ·
c1ccc2c(c1)[nH]c1ccncc12 | · | · | -1 | · | -2.7
COCCN=C1Sc2nc3c(C)cccc3cc2CN1Cc1ccco1 | -9% | -9 | -2 | -66 | 8.5
CCc1cccc(NC(=O)CCNS(=O)(=O)c2ccc3c(c2)oc(=O)n3C)c1 | · | · | -9 | · | -0.2
CCOc1ccc(CN2CCCC(N3CCN(c4ccc(OC)cc4)CC3)C2)cc1 (centres undefined) | · | · | 0 | · | -5.5
Cc1cc(-c2ccco2)n(CC(=O)NCc2ccco2)n1 | 1% | 6 | -1 | -39 | -1.2 | Arbovirus anti repeat=5
Cc1c(C(=O)N2CCC(C)CC2)sc2ncnc(N(C)c3ccccc3)c12 | 0% | 3 | -4 | -4 | 7.4
O=C(Nc1cccc(Cl)c1)c1csc(-c2ccccc2)n1 | · | 9 | 1 | -33 | 15
CCC(C)NC(=O)C1CN(S(=O)(=O)c2ccccc2)CCN1S(=O)(=O)c1ccccc1 (centres undefined) | 1% | 6 | -18 | -26 | 2.4 | Arbovirus anti repeat=-5
C=CCN1C(=O)C2(OCCCO2)c2c(C)ccc(C)c21 | · | · | -5 | · | -2.2
CCOc1ccc(/C=N/NC(=O)CN2CCCCC2)cc1OCC | · | · | -2 | · | 3.6
COc1c(C)cccc1C(=O)Nc1ccc(N2CCN(C(=O)c3ccccc3C)CC2)cc1 | · | · | 2 | · | 5.3
CC1Cc2ccccc2N1C(=O)c1ccnc(C(C)(C)C)c1 (centres undefined) | -2% | 9 | -7 | -20 | 3.4
COc1ccc(NC(=O)/C(=C\c2ccco2)NC(=O)c2ccco2)cc1 | · | · | 1 | · | 1.3
CCCN(CCC)CCCNC(=O)C1c2cc(OC)c(OC)cc2C(=O)N(C)C1c1cccnc1 (centres undefined) | -7% | 1 | -7 | · | -4.6
COc1ccc(-c2nc3ccncc3[nH]2)cc1OC | 3% | -2 | 1 | -103 | 0.4
CC1CCCC(C)N1CCCNC(=O)c1ccc2c(c1)NC(=O)c1ccccc1S2 (centres undefined) | · | · | -3 | · | -4.2
